# Arbovirus inh: antivirals against arbovirus infection, primary screen, cell-based, full library, 10K replicate subset; arbovirus infection cell-based antiviral screen; inhibition, % at 10 µM; hit rate 0.37% among 200,000;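 active means inhibition from about 30%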;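 further: bluetongue infection of BSR cells; cell survival read as ATP light after 72 h; 0% = infected wells without compound and 100% = uninfected wells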
# Mtb betalactam: beta-lactam sensitization of Mtb H37Rv, H37Rv; hit rate 0.27% among 330,000; inhibition, % at 25 µM; M. tuberculosis H37Rv growth with meropenem, percent inhibition; hits of this screen are not shown here; AID 434955, 2010;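 active means about 74% or more and at least 40 points above the plate without the antibiotic, then above 30% in a dose series; inconclusive means first-round hits that could not be retested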;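 further: growth measured after seven days incubation then overnight dye step; 0% = bacteria only wells and 100% = bacteria with antibiotic; twin plates without the antibiotic show which effects depend on it; some results filed as inactive read as strong as hits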
# YopH inh: YopH tyrosine phosphatase inhibitors, primary screen, biochemical, fluorescence Ex485/Em525 | YopH tyrosine phosphatase [Yersinia enterocolitica] | inhibition, %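 (about 10 µM by stock and volumes)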 | hit rate 0.16% among 140,000;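 active means inhibition of 50% or more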;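 further: controls were vehicle for no effect and minimum signal wells for full effect; inactives centre near -20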
# RecA splice inh: Mtb RecA intein splicing inhibitors, primary screen, biochemical, fluorescence, HTS; Protein RecA (Mycobacterium tuberculosis (strain ATCC 25618 / H37Rv)), P9WHJ3; cell-free RecA intein splicing; inhibition, %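 (about 9 µM by stock and volumes)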; hit rate 0.75% among 290,000; AID 2221, 2009; in the data active means inhibition above about 30%; inconclusive means no clear call, values can overlap the other calls;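 further: 0% = vehicle wells and 100% = reference inhibitor control wells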
# Target sequence (P9WHJ3 whole entry, looked up, canonical isoform): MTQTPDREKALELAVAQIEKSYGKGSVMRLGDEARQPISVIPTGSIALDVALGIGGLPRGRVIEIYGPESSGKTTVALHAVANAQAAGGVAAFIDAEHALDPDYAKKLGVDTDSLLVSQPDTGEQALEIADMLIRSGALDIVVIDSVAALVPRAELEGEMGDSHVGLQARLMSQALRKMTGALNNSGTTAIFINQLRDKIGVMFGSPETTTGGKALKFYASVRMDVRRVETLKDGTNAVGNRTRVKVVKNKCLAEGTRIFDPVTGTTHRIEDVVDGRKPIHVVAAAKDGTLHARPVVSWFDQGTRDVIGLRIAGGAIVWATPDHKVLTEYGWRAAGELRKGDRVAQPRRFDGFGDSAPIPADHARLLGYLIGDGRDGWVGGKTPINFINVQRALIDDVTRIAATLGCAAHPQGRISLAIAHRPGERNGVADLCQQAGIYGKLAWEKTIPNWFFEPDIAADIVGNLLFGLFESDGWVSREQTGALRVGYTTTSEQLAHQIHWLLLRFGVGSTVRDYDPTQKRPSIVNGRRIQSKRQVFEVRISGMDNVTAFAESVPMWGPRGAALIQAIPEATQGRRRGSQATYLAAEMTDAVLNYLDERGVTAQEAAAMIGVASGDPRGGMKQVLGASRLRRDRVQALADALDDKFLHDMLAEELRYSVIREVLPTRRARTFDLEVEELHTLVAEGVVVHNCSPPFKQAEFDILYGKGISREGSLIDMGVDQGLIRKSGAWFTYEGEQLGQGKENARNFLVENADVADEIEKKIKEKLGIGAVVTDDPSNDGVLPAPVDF
# Mtb H37Rv: M. tuberculosis H37Rv growth inhibitors, H37Rv strain (AID 1626) | inhibition, % at 10 µM; hits with a dose series show IC50 in µM | hit rate 0.95% among 220,000 | M. tuberculosis H37Rv growth inhibition; higher % means a stronger effect;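 active means confirmed in a dose series; inconclusive means inhibition above 80% but not taken into the dose series; inactive means below 80% or under 30% at every dose of the series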;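 further: bacteria incubated seven days before Alamar blue readout; 0% = bacteria only wells and 100% = bacteria with antibiotic wells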
# Arbovirus inh repeat: also measured in Arbovirus inh; calls as there; inhibition, %; measured here: 10K subset replicate screen; many hits read low in the repeat;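 first of two repeat runs on a subset; 0% = infected and 100% = uninfected wells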
# The depositor's hits bear a star; ? = inconclusive; . = not tested or not shown. The list is partial (hit frequency here may not be typical).
SMILES,Arbovirus inh,Mtb betalactam,YopH inh,RecA splice inh,Mtb H37Rv,others
CCOc1ccc(S(=O)(=O)Nc2ccc(C(=O)NCC3(N4CCCCC4)CCCCC3)cc2)cc1,.,9,.,4.0,.,
O=C1/C(=C/Nc2ccc3c(c2)OCO3)CCc2ccccc21,-30,91,-12,49*,76%,
CCc1nnc(NC(=O)CN2C(=O)CCC2=O)s1,10,-3,-13,-1.9,-5%,
O=C1CC(Cc2ccc(Br)cc2)C(=O)N1c1ccccc1 (stereo unspecified),.,1,.,-2.4,.,
COC(=O)Oc1ccc(/C=N/NC(=O)CSCc2ccccc2Br)cc1OC,-5,12,-21,8.6,-4%,
CCC(C(=O)N/N=C/c1cccnc1)c1ccccc1 (stereo unspecified),.,3,.,-2.5,.,
COc1ccc(S(=O)(=O)/N=C2/NC(=O)/C(=C/c3ccco3)S2)cc1,-3,7,-20,-0.1,-6%,
COc1ccc(NC(=O)CCCC(=O)OCC(F)(F)C(F)F)cc1,.,3,-48,1.0,-12%,
Cc1cc(C(=O)COC(=O)c2cc(O)c3ccccc3c2O)c(C)n1CC1CCCO1 (stereo unspecified),0,.,.,.,2%,
O=C1c2ccccc2-c2onc3ccc(NCCCn4ccnc4)c1c23,-26,31,5,30,-1%,
CN(C)CCNc1oc(/C=C/c2ccccc2)nc1C#N,-2,3,-12,-7.2,99%,
O=C1N=C(N2CCOCC2)S/C1=C\c1ccncc1,.,-1,.,0.6,-6%,
Cc1cc(C)c(S(=O)(=O)c2ccc(Cl)cc2)c(=O)[nH]1,.,-7,.,-2.7,.,
COCCN(C(=O)C1CC1)c1nnc(-c2ccc(C)cc2)s1,-8,-1,-7,-2.3,-12%,
O=C(CCCc1ccccc1)Nc1cccnc1,1,-3,-5,2.1,0%,

# Three structures out of the list, sorted by count of non-hydrogen atoms, rising.
SMILES,Arbovirus inh,Mtb betalactam,YopH inh,RecA splice inh,Mtb H37Rv,others
CCC(C(=O)N/N=C/c1cccnc1)c1ccccc1 (stereo unspecified),.,3,.,-2.5,.,
CN(C)CCNc1oc(/C=C/c2ccccc2)nc1C#N,-2,3,-12,-7.2,99%,
COc1ccc(S(=O)(=O)/N=C2/NC(=O)/C(=C/c3ccco3)S2)cc1,-3,7,-20,-0.1,-6%,

# Next part:
SMILES,Arbovirus inh,Mtb betalactam,YopH inh,RecA splice inh,Mtb H37Rv,others
CCOc1ccc2nc(N3CCC(C(=O)Nc4nnc(CC)s4)CC3)sc2c1,12,1,26,-3.1,19%,Arbovirus inh repeat=6
COc1ccc(C(=O)N2CCN(C)C(=O)[C@@H]2C)cc1OC1CCN(C(C)=O)CC1,.,-14,.,-4.4,.,
CSc1c(CC(=O)NCCCO)n(Cc2ccccc2)c2ccccc12,.,5,.,1.6,.,
O=S(=O)(Cc1ccccc1Cl)c1ncn[nH]1,.,-2,.,.,-6%,
O=C(NC1CCCCCC1)c1cccnc1Sc1ccc(Cl)cc1,-6,4,-17,1.5,5%,
Cc1ccc(C)c(NC(=O)CN(C)C(=O)c2ccccc2OCc2ccccc2Cl)c1,.,1,.,5.2,.,
Cc1nn(C(=O)CCCn2cc([N+](=O)[O-])cn2)c(C)c1Cl,7,1,.,3.2,4%,
Cc1ccc(C(C(=O)NC2CCCCC2)N(CC2CCCO2)C(=O)CNC(=O)c2cccs2)cc1 (stereo unspecified),-8,9,-6,-4.0,-11%,
CCOc1cc(C(=O)CSc2nnc(CNc3ccc(Cl)cc3)o2)ccc1NC(=O)CC,-14,11,-6,3.6,-17%,
CCc1cc2c(=O)[nH]c(CC(N)=O)nc2s1,2,-4,.,-1.0,-1%,
COc1ccc(Cc2noc(CN(C)Cc3ccc(-n4cccn4)cc3)n2)cc1OC,-3,-2,.,-0.7,1%,
COc1ccc(C2/C=C\CN(C(=O)Oc3ccc(C(F)(F)F)cc3)CC(=O)N2Cc2ccc(F)cc2)cc1 (stereo unspecified),.,-4,.,3.9,2%,
O=C1c2ccccc2C(=O)c2c([N+](=O)[O-])ccc(O)c21,.,6,.,.,9%,
CCCS(=O)(=O)c1c(S(=O)(=O)CCC)c2cnccn2c1C(=O)c1ccc(F)cc1,-3,-6,-45,1.7,-9%,
Cc1ccc(CN(C)C(=O)c2ccc(NS(=O)(=O)c3ccc4[nH]c(=O)[nH]c4c3)cc2)cc1,.,-1,.,2.4,.,

# Of the compounds above, these have an NH in an aromatic ring.
SMILES,Arbovirus inh,Mtb betalactam,YopH inh,RecA splice inh,Mtb H37Rv,others
Cc1cc(C)c(S(=O)(=O)c2ccc(Cl)cc2)c(=O)[nH]1,.,-7,.,-2.7,.,
O=S(=O)(Cc1ccccc1Cl)c1ncn[nH]1,.,-2,.,.,-6%,
CCc1cc2c(=O)[nH]c(CC(N)=O)nc2s1,2,-4,.,-1.0,-1%,
Cc1ccc(CN(C)C(=O)c2ccc(NS(=O)(=O)c3ccc4[nH]c(=O)[nH]c4c3)cc2)cc1,.,-1,.,2.4,.,

# Next section.
SMILES,Arbovirus inh,Mtb betalactam,YopH inh,RecA splice inh,Mtb H37Rv,others
Cc1cc(C(F)(F)F)cc(NNC(=O)NC(=O)c2ccccc2Cl)n1,.,-1,.,1.6,-6%,
Cc1nc(N)nc(OCC(F)(F)C(F)F)c1Br,3,-5,6,14,-1%,
CN1CCNC(=O)C1CC(=O)N1CC=C(c2ccc(F)cc2)CC1 (stereo unspecified),2,1,.,0.1,2%,
CNC(=S)NNC(=O)Cc1ccccc1,0,-1,-37,3.2,-6%,
CCOC(=O)c1ccc(NC(=O)CN2CCN(CCN=CC3=C(O)CC(C)(C)CC3=O)CC2)cc1,0,.,-29,.,-4%,
CCOc1ccc(C(=O)c2ccccc2C(=O)O)cc1OCC,5,7,.,-3.0,4%,
COc1cc2c(c(OC)c1OC)-c1ccc(OC)c(=O)cc1[C@@H](N(C)CC#CCO)CC2,.,3,.,1.8,.,
O=C(CSc1c[nH]c2ccccc12)NCc1ccc2c(c1)OCO2,-9,3,-52,-3.4,77%,
CCN(CC)CCNC(=O)CCN1N=C(c2ccccc2)CCC1=O,.,1,.,-1.4,.,
Cc1cc(C)cc(NC(=O)N2CCCN(c3ncccc3[N+](=O)[O-])CC2)c1,.,2,.,3.6,-2%,
O=C(Nc1ccccc1)c1ccccc1Oc1ccc(C(F)(F)F)cc1[N+](=O)[O-],-5,?,-4,6.1,3%,
Cc1nc2sc(C)c(C)c2c(=O)[nH]1,-1,-1,-41,-2.4,-4%,
O=C(Nc1ccc2nc3n(c(=O)c2c1)CCCCC3)c1ccccc1[N+](=O)[O-],.,1,.,-6.9,.,
CN(C(=O)COC(=O)c1ccc(Cl)nc1)C1CCS(=O)(=O)C1 (stereo unspecified),21,-5,.,-4.4,3%,
COc1ccc(/C(C)=N\NS(=O)(=O)c2ccccc2)cc1OC,-12,-6,-33,-0.4,4%,
COc1nccnc1NS(=O)(=O)c1ccc(NC(=S)NC(=O)c2ccc(F)c(F)c2)cc1,-9,-2,-18,-10,-2%,
Cc1cc2c(cc1S(=O)(=O)N(C)c1ccccc1)n(C)c(=O)n2C,.,-2,.,-0.5,.,
CCCCn1c(O)c(C=NCCN2CCCCC2)c(=O)[nH]c1=O,-1,0,-44,1.2,-8%,
O=C(CCCC(=O)N/N=C\c1ccccn1)N/N=C\c1ccccn1,2,6,-28,0.1,-12%,
Cc1cc(C)n(CCNC(=O)C2CCC(=O)N(CC3CCCCC3)C2)n1 (stereo unspecified),.,2,.,1.0,.,
COc1ccc(Cl)cc1C(=O)NC(=S)Nc1nc(C)cc(C)n1,.,61,.,-0.4,.,
COc1ccc(-c2cn3cc([N+](=O)[O-])ccc3n2)cc1OC,1,94,.,-0.9,-3%,
COc1ccc(CCNC(=O)CSc2cn(Cc3cccc(C)c3)c3ccccc23)cc1OC,-6,2,-42,0.4,5%,
CN(C)c1ccc(Nc2ccc([N+](=O)[O-])cn2)cc1,.,2,.,-2.7,.,
COc1ccccc1C(=O)OCC(=O)NC(=O)NCc1ccccc1,-2,4,.,-0.8,1%,
CCSc1ccccc1C(=O)N1CCN(Cc2ccc3c(c2)OCO3)CC1,-6,-4,-14,-0.2,1%,
CCC/C=C(\CCC)C(NC(=O)c1ccc(C(=O)OC)cc1)c1ccc(C(=O)OC)cc1 (stereo unspecified),.,-2,.,1.3,1%,
CNC(=O)c1cc(S(=O)(=O)Nc2ccc3c(c2)OCO3)ccc1C,.,-2,.,0.3,.,
O=c1cc(-c2ccccc2)[nH]c2ccccc12,-18,11,-51,-3.3,-15%,
O=C(NC1CCCCCC1)c1ccc2nc3cc(Cl)ccc3c(=O)n2c1,-13,-2,.,-4.3,4%,
COc1cccc(C(=O)NC(=S)Nc2ccccc2N2CCOCC2)c1,.,-1,.,12,.,
CN(C)/C=C/C(=O)c1cc(F)cc(C(F)(F)F)c1,7,-1,.,-1.2,-2%,
Cc1ccc(S(=O)(=O)/N=C2\SC(CC(=O)Nc3ccc(F)cc3)C(=O)N2c2ccccc2)cc1 (stereo unspecified),0,7,-27,-0.1,-4%,
COc1ccc2c(c1)C(NC(=O)C(F)(F)F)CC2=O (stereo unspecified),0,12,-17,-0.1,-3%,
CN(c1ccccc1)S(=O)(=O)c1ccc(Cl)c(C(=O)Nc2ccc(-c3nc4ccccc4[nH]3)cc2)c1,-26,16,-20,-1.2,35%,
CC(C)C(=O)Nc1nnc(COc2ccc(Cl)cc2)s1,.,-1,.,0.8,13%,
CC(Oc1ccc2ccccc2c1)C(=O)N/N=C/c1cccnc1 (stereo unspecified),.,4,.,-2.8,.,
O=C(NCC1CCCO1)C1CCC(CNS(=O)(=O)c2ccccc2)CC1 (stereo unspecified),-2,-8,-29,0.2,-15%,
COc1ccc(-c2nc(=S)c3c(n2CCN2CCOCC2)CC(C)(C)OC3)cc1,-4,1,-28,2.1,-2%,
CCC1=Nc2ccccc2NC2=C1C(=O)CCC2,-5,-2,6,-6.8,-2%,
O=C(N/N=C/c1cn(-c2cccs2)nc1-c1ccccc1)c1ccccc1O,-2,85,-3,7.1,?,
O=[N+]([O-])c1ccccc1N/N=C1\CCc2ccccc21,-3,5,.,1.2,2%,
Cc1ccc(C)c(OCC(=O)Nc2c[nH]c(=O)[nH]c2=O)c1,1,7,-20,0.0,.,
C=CCn1c(CNC(=O)c2ccco2)nnc1SCC(=O)Nc1cccc(F)c1,5,-12,.,-1.5,3%,
Nc1cc[n+](CC(=O)Nc2ccccc2)cc1,2,2,.,-0.3,-7%,
O=C(O)CCC(=O)NCc1c(Cl)cccc1Sc1ccc(Cl)cc1,.,-10,.,2.8,7%,
COc1ccc2c(C)cc(SCc3c(C)noc3C)nc2c1,0,?,-13,2.7,2%,
Cc1cc(N)n2ncc(-c3ccc(Cl)cc3)c2n1,-3,96,-6,6.0,44%,
COc1cccc(Cn2nnc(C(=O)Nc3ccc(C)cc3)c2N)c1,-16,4,-9,0.2,0%,
COC(=O)c1oc2ccc(Br)cc2c1NC(=O)CCCN1C(=O)c2ccccc2C1=O,6,-1,-36,1.4,0%,Arbovirus inh repeat=-5
CC1(C)C2CCC1(C)C(OC(=O)CC(=O)O)C2 (stereo unspecified),-4,-2,-17,5.8,-4%,
Cc1cccc2cc(CN(CCN3CCOCC3)C(=O)Nc3ccccc3F)c(=O)[nH]c12,-4,-1,-25,-1.6,-2%,
c1ccc(COc2nsnc2N2CCOCC2)cc1,-3,-8,-18,10,4%,Arbovirus inh repeat=-1
CON/C=C(\C=Nc1ccc(C(F)(F)F)cc1)c1ncc(C(F)(F)F)cc1Cl,-2,4,-24,0.1,2%,
COc1cc(C2=NOC(C(=O)N3CCCCCC3)C2)cc(OC)c1OC (stereo unspecified),1,-1,-49,12,4%,
Cc1ccc(N/C=C2/Sc3ccccc3NC2=O)cc1,-3,1,.,-4.1,-4%,
O=C(CSc1nnc(-c2ccc(Br)cc2)n1CCc1ccccc1)NC1CCS(=O)(=O)C1 (stereo unspecified),-6,9,-17,0.8,3%,
O=C(c1ccc(OC2CCN(C(=O)C3CC3)CC2)cc1)N(CCO)Cc1ccccc1,.,-6,.,1.7,-5%,
COc1ccc2c(c1)-c1c(sn(-c3ccccc3)c1=S)C(C)(C)N2,-13,-1,-26,-1.6,-4%,
O=C(Nc1ccccc1Br)C1CCN(C(=O)Cc2ccccc2)CC1,1,11,3,1.0,-12%,
CC(=O)N1CCC(=NNc2ccc(S(=O)(=O)N3CCOCC3)cc2[N+](=O)[O-])CC1,-4,4,-16,-3.5,-4%,

# Screening results from PubChem BioAssay.
